GIV Gai3 FP: inhibitors of GIV GBA-motif binding to rat Galpha-i3; hit rate 0.42% among 210,000; percent of control (FP), % (no concentration beside the values); Galpha-i3/FITC-GIV peptide fluorescence polarization, 90 min; hits give low values; scaled: aluminum fluoride 0%, vehicle 100%;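 active means replicate mean at 85% of control or lower, very high polarization wells dropped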;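 further: wells of about 15 µL received 100 nL stock; the first replicate is given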
Target sequence (P08753 whole entry, looked up): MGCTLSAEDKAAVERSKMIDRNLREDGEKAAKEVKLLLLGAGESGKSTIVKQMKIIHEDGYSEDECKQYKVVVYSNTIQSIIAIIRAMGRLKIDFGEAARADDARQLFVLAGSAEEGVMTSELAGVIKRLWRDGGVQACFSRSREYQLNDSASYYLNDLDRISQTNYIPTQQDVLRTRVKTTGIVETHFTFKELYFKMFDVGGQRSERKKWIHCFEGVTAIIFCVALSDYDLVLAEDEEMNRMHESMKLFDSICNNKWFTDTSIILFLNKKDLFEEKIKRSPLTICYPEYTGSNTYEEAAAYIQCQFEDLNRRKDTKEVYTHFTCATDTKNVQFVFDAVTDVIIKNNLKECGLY
HCMV NEC inh: cytomegalovirus nuclear egress complex inhibition | HTRF UL50-UL53 interaction, normalized percent inhibition | inhibition, % (concentration not given with the values) | AID 1918969 | hit rate 0.15% among 190,000;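 active means both replicates at 50% or more, plus weaker picks with an unusually low signal ratio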;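 further: stock transfer was 100 nL into about 20 µL; 0% = negative control wells and 100% = wells with untagged competitor protein; inactives centre near -12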
Sa growth 42C: inhibitors of Staphylococcus aureus growth at 42 °C | S. aureus RN4220 growth, OD600, 20 h; hits give low values | relative growth, % (no concentration beside the values) | hit rate 0.53% among 170,000 | AID 720641;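 active means growth at 42 °C up to 50% and 20 or more points under that at 30 °C, or under 10% at both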;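 further: 300 nL library stock went into each well; scaled to the means of positive and negative controls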
Sa growth 42C second temp: also measured in Sa growth 42C; calls as there; relative growth, %; measured here: growth at 30 °C;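 optical density after 20 h as mean of two plates; 100% = untreated growth and lower means inhibition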
Numbers without * were called inactive; / = not tested or not shown; & = joins results of further samples.

SMILES	GIV Gai3 FP	HCMV NEC inh	Sa growth 42C	Sa growth 42C second temp
O=C1c2ccccc2C(=O)c2[nH]c(-c3c(F)c(F)c(F)c(F)c3F)nc21	99	-74	69	36
CC(=O)NCCn1c(SCC(=O)NC2CCCCC2)nc2ccccc2c1=O	95	4	100	81
O=C1CN(CCc2ccccc2)[C@H]2CS(=O)(=O)C[C@H]2N1c1ccc(Br)cc1	107	-14	/	/
CCN(C(=O)c1ccc2c(SCC(=O)O)c3c(nc2c1)CCC3)c1cc(Cl)ccc1OC	97	/	96	91
COCc1cc(C)nc2sc(C(=O)N(C)c3ccccc3)c(N)c12	99	/	120	99
COc1ccc(C2CC(=O)Nc3cc(OC)c(OC)cc32)cc1 (configuration not stated)	102	-11	102	84
CCn1c(=NC(=O)c2ccc(Cl)s2)sc2ccccc21	104	-21	108	86
COc1cc(NC(=O)c2ccco2)c(OC)cc1NC(=O)CSc1ncc(-c2ccc(F)cc2)[nH]1	101	12	105	91
O=C(C1=CC=CN2CCS(=O)(=O)N=C12)N1CCN(c2ccccn2)CC1	/	-18	87	86
Cc1ccc(C(=O)Nc2c(C(C)(C)C)nn(C)c2C(C)(C)C)cc1	103	4	107	101
O=C(N/C(=C/c1ccc2c(c1)OCO2)C(=O)N1CCOCC1)c1ccc(Br)cc1	102	-24	92	92
COc1ccc(-c2noc(CC(=O)N3CCc4ccccc43)n2)cc1	101	-30	85	85
CC(C)C(=O)Nc1ccc(-c2cn3cccnc3n2)cc1	99	-40	87	81
COCCCn1c(=N)c(C(=O)NC2CCCC2)cc2c(=O)n3cccc(C)c3nc21	109	-114	92	102
CCOC(=O)c1cnn(-c2ccc(Cl)nn2)c1C	105	-29	/	/
Cc1cc(N2CCN(c3ccccn3)CC2)nc2c(C)cccc12	/	8	93	98
CCOC(=O)c1c(C)oc2ncnc(Nc3ccccc3)c12	95	-37	96	84
COc1ccc(Br)cc1CNC(=O)CS(=O)(=O)Cc1nc(-c2ccc(C)cc2)oc1C	98	-12	97	87
COC(=O)C1CN(C(=O)Cc2coc3cc4c(cc23)CCC4)c2ccccc2O1 (configuration not stated)	/	-6	147	88
Cc1ccc(NC(=O)CCc2nnc3n(CC(C)C)c(=O)c4ccccc4n23)cc1C	99	-39	93	86
O=C(Nc1ccc2c(c1)OCCO2)C1(c2ccccc2)CCOCC1	/	-5	99	92
Cc1ccnc(NC(=O)c2ccccc2NC(=O)c2ccccc2)c1	104	-30	89	85
Cc1c(C(=O)N2CCC(C)CC2)oc2ccc3c(c12)C(O)CC1(CCCCC1)O3 (configuration not stated)	105	-18	/	/
O=C(Cn1c(=O)c2ccccc2n2nncc12)Nc1cccc(F)c1	101	-16	100	90
C1CCN(C2=NCCS2)CC1	104	-18	89	91
Cn1c(NCc2c[nH]c3ccccc23)nc2ccccc21	96	-4	79	40
CCOC(=O)C1CCCN(C(=O)COc2cccc(Br)c2)C1 (configuration not stated)	/	14	104	97
CCOC(=O)c1ccccc1NC(=O)c1ccc(F)cc1	97	-9	100	90
CCN(CC)S(=O)(=O)c1ccc2oc(C(=O)Nc3ccc(Br)cc3F)c(C)c2c1	107	/	127	86
Cc1ccc(-c2nc(C)c(CCNC(=O)C(=O)Nc3ccc4c(c3)OCO4)s2)cc1	97	/	91	85
CCOCCOC(=O)C(C)Oc1ccc2c(=O)c(Oc3ccc(OC)cc3)c(C(F)(F)F)oc2c1 (configuration not stated)	97	-15	/	/
CCn1c(CSc2nc3ccccc3n2CCOC)nc2cc(S(=O)(=O)N(C)C)ccc21	/	-24	90	78
CCOC(=O)c1c(-c2ccc(OC)cc2)csc1NC(=O)CNCc1ccco1	102	-8	109	96
CCCCNc1nc(Oc2ccc(=O)[nH]n2)nc(N(C)C)n1	101	-23	101	87
O=C(OC1CCCC1=O)c1cc(-c2ccco2)nc2ccccc12 (configuration not stated)	/	-36	95	93
CCN(C(=S)NCc1ccccc1)C1CCCCC1	/	-4	115	89

Of the compounds above, 4 have an aryl thioether with sulfur outside any ring.
SMILES	GIV Gai3 FP	HCMV NEC inh	Sa growth 42C	Sa growth 42C second temp
CC(=O)NCCn1c(SCC(=O)NC2CCCCC2)nc2ccccc2c1=O	95	4	100	81
CCN(C(=O)c1ccc2c(SCC(=O)O)c3c(nc2c1)CCC3)c1cc(Cl)ccc1OC	97	/	96	91
COc1cc(NC(=O)c2ccco2)c(OC)cc1NC(=O)CSc1ncc(-c2ccc(F)cc2)[nH]1	101	12	105	91
CCn1c(CSc2nc3ccccc3n2CCOC)nc2cc(S(=O)(=O)N(C)C)ccc21	/	-24	90	78

Further compounds:
SMILES	GIV Gai3 FP	HCMV NEC inh	Sa growth 42C	Sa growth 42C second temp
N#Cc1nc(-c2ccc(COc3ccccc3)o2)oc1NCc1cccnc1	98	-57	98	84
CC1=NN(c2nnc(C)c(=O)[nH]2)C(=O)/C1=C\c1ccc(N(C)C)cc1	/	-12	89	89
Cc1nc2ccccc2c2c1C(=O)N(c1ccc(C(=O)OCc3ccccc3Cl)cc1)C2=O	106	-9	/	/
COc1cccc(CNC(=O)C2CCN(c3nc4ccccc4n(C)c3=O)CC2)c1	99	-5	/	/
O=C(Cc1ccccc1)NC1CCN(C(=O)C2CCC2)CC1	104	12	121	100
CC1(C)Cc2cccc(Oc3nnnn3-c3ccccc3)c2O1	/	12	93	92
COc1ccccc1CNC(=O)CCn1c(=O)c2ccccc2n(CC(=O)Nc2cccc(Cl)c2)c1=O	103	-16	109	88
CN(Cc1ccccc1)C(=O)Cn1ncn2nc(-c3cccs3)cc2c1=O	104	-23	72	79
C=Cc1ccc(Cn2c(=O)n(-c3cccc(Cl)c3)c(=O)c3c4c(sc32)CN(C(C)=O)CC4)cc1	104	2	99	79
NC(=O)C1CCN(C(=O)CCSc2ccc(Cl)cc2)CC1	108	2	100	110
O=C(Nc1ccccc1C(=O)NCCN1CCOCC1)c1cccs1	99	-16	89	80
Nc1ccc(OCc2ccc3ccccc3n2)cc1	99	-6	92	72
COc1cc2c(cc1OC)C(c1ccccc1N)=NCC2	109	-29	101	76
Cc1cc(C)nc(NCCCO)n1	106	-17	89	87
Cc1ccn2c(NC(=O)CN3CSCC3=O)c(-c3ccccc3)nc2c1	/	-10	121	97
CC1CCCC(NC(=O)Cn2cnc3onc(-c4ccc(Cl)cc4)c3c2=O)C1C (configuration not stated)	101	-23	102	74
Cc1nn(C)c(C)c1S(=O)(=O)N(CC(=O)N1CC=C(c2ccccc2)CC1)c1ccc(C(C)C)cc1	102	-29	/	/
COc1ccc2[nH]cc(CCNC(=O)CCn3c(=O)c(C)nc4cc(C)c(C)cc43)c2c1	107	-30	/	/
CCCCCC(=O)Nc1ccc(C(=O)COC(=O)c2cnc(C)cn2)cc1	/	-9	92	95
CCn1cc(CCC(=O)NCc2ccco2)c2ccccc21	105	/	94	86
Cc1cc(C(=O)NCC2CCCO2)c2c(=O)n(C)c(=O)n(C)c2n1 (configuration not stated)	102	-28	/	/
CCOc1ccccc1-c1noc(CSc2nc3c(-c4ccccc4)c[nH]c3c(=O)[nH]2)n1	100	-28	/	/
CC(C)NC(=S)Nc1ccc2cn[nH]c2c1	/	-20	89	91
CN(Cc1ccccc1)C1CCN(Cc2cccnc2)CC1	102	-12	103	83
CC(C)(C)C(=O)Nc1cccc(-c2nc(-c3ccccc3)no2)c1	104	-28	/	/
CC(C)N(C=O)C1(C(=O)NC2CCCCC2)CCCCC1	103	-9	115	97
ON=C1/C(=N\O)CC2(C/C1=N/O)OCCO2	96	-21	90	61
O=C(Nc1ccccc1Cl)c1cc2ccccc2cc1O	98	/	89	66
FC(F)(F)c1cc(-c2cccs2)nc2cc(C3CC3)nn12	108	-5	101	82
Cc1c(/C=N/N=C2/C(=O)N(Cc3ccccc3)c3ccccc32)cc(C#N)n1C	/	-22	84	87
COC(=O)c1sc2cccc(F)c2c1S(=O)(=O)N1CCC(C(N)=O)(N2CCCCC2)CC1	104	9	/	/
CCN(Cc1ccccc1)Cc1nnc(-c2ccccc2)o1	105	-1	111	91
COc1ccccc1N1CCN(c2ccc(-c3nc(-c4ccccc4C)no3)cc2[N+](=O)[O-])CC1	110	-17	100	85
Cc1ccc(NC(=O)c2cnc(SCC(=O)N3CCOCC3)n(C)c2=O)cc1C	97	/	106	88
COCc1cc(C)nc2sc3c(=O)n(-c4ccccc4C(F)(F)F)nnc3c12	103	/	112	94
Clc1cccc(CSc2nnc(-c3ccncc3)o2)c1	101	12	/	/
Cc1ccc(C(=O)NCCc2cc3cc(C)c(C)cc3[nH]c2=O)cc1	100	/	106	81
Cc1nc(N)sc1N=Nc1ccccc1C(F)(F)F	/	-29	113	94
Cc1c(Cc2ccccc2)c(=O)oc2cc(OCc3ccc(C(=O)O)cc3)ccc12	98	/	110	85
COc1cccc(-c2cn3c(n2)sc2cc(C(=O)NC4CCCCC4)ccc23)c1	104	/	100	81
Cc1cc(Nc2ccc(N(C)C)cc2)n2c(nc3ccccc32)c1C#N	105	11	102	93
C=CCN1CC2(c3ccccc3)CN(CC=C)CC(c3ccccc3)(C1)C2=O	108	-9	96	88
Cc1ccc(-c2cc(C(=O)N3CCCCC3C)[nH]n2)cc1C (configuration not stated)	108	6	99	111
CC(C)c1ccc2[nH]c3c(c2c1)CCC/C3=N\O	103	/	98	62
COC(=O)COc1ccc(C2C(C(=O)OC)=C(C)NC3=C2C(=O)c2ccccc23)cc1OC (configuration not stated)	108	-68	97	80
CCOc1ccc(N(Cc2cc3cc(C)ccc3[nH]c2=O)C(=O)c2cccc(Cl)c2)cc1	102	-13	112	83
Cc1ccc(/C=C2\Sc3ccccc3C2=O)c(O)c1	/	-7	80	85
O=C(O)c1cccc(NCc2ccc3c(c2)OCO3)c1	/	-10	104	108
Cc1cc(C)c2c(c1)c1nc3ccccc3nc1n2CC(=O)O	100	-115	117	85
COc1ccccc1Nc1cc(C(=O)NCc2cccs2)c2ccccc2n1	108	-4	113	72
O=C(c1cccs1)C(O)c1c[nH]c2ccccc12 (configuration not stated)	102	-18	104	89
O=C(c1ccc2c(c1)C(=O)c1ccccc1-2)c1ccccc1Br	97	-13	101	93
COC(=O)c1c(-n2cccc2)sc2c1CCN(C(C)=O)C2	106	-20	101	88
CCOC(=O)c1oc2ccccc2c1COC(=O)CSc1nc(C)cc(C)n1	/	-10	96	91
Cc1ccc(C2CC(c3ccccc3)=Nc3ccccc3S2)cc1 (configuration not stated)	100	1	105	98
Cc1ccc(-n2nc(C)c3c(C)cc(=O)n(CC(=O)NC(C)C)c32)cc1	100	/	96	100
CC(=O)NC(=O)c1cc2cc(Br)ccc2oc1=Nc1cccc(C(F)(F)F)c1	103	-16	/	/
COc1cccc(C2CC(=O)N(c3ccc(F)cc3)C3=C2C(=O)OC3)c1OC (configuration not stated)	105	0	98	93
O=C(c1cccs1)N1CCN(c2cccc3[nH]ccc23)CC1	103	-12	77	89
O=C(NCN1CCN(c2ccccc2F)CC1)c1ccccc1	104	-25	91	83

Random excerpt: seven entries already listed, in no set order.
SMILES	GIV Gai3 FP	HCMV NEC inh	Sa growth 42C	Sa growth 42C second temp
COC(=O)c1c(-n2cccc2)sc2c1CCN(C(C)=O)C2	106	-20	101	88
Cc1ccc(-n2nc(C)c3c(C)cc(=O)n(CC(=O)NC(C)C)c32)cc1	100	/	96	100
CC(=O)NC(=O)c1cc2cc(Br)ccc2oc1=Nc1cccc(C(F)(F)F)c1	103	-16	/	/
Cc1ccc(C2CC(c3ccccc3)=Nc3ccccc3S2)cc1 (configuration not stated)	100	1	105	98
O=C(c1cccs1)N1CCN(c2cccc3[nH]ccc23)CC1	103	-12	77	89
Cc1cc(C)c2c(c1)c1nc3ccccc3nc1n2CC(=O)O	100	-115	117	85
COc1ccccc1Nc1cc(C(=O)NCc2cccs2)c2ccccc2n1	108	-4	113	72

The list goes on.
SMILES	GIV Gai3 FP	HCMV NEC inh	Sa growth 42C	Sa growth 42C second temp
Cc1ccc(-c2cccc3c(C(=O)N4CCN(c5ncccn5)CC4)cc(C)nc23)cc1	103	-18	/	/
Cc1ccccc1-n1nc2c(c1NC(=O)C(C)C)CSC2	99	-40	94	88
CC(C(=O)Nc1ccc(Br)cc1)n1nnc2sc(-c3ccccc3)cc2c1=O (configuration not stated)	104	-5	/	/
CSc1nc2c(sc3ccccc32)c(=O)n1-c1ccc(C)cc1	99	/	111	94
O=C(CSc1nccn1Cc1ccccc1)NCc1ccco1	110	/	119	92
CCOC(=O)c1cnc2ccc(OCC)cc2c1N1CCN(c2ccccc2F)CC1	94	0	107	92
CC1(C(=O)NC2CCCC2)Cn2c(cc3sccc32)C(=O)N1Cc1ccc(Cl)cc1 (configuration not stated)	100	11	/	/
CCCCC(NC(=O)c1ccc2c(c1)OCCO2)C(=O)O (configuration not stated)	104	-18	/	/
Cc1ccc(C)c(NC(=O)N2CCN(C(=O)c3nsc4ccccc34)CC2)c1	99&99	/	82	85
Cc1c(C(=O)O)sc2ncnc(N3CCN(c4ccccc4)CC3)c12	109	-19	/	/
COc1ccc2c(CCNC(=O)Nc3ccccc3)c[nH]c2c1	107	20	92	104
C=CCOC(=O)c1c(N)oc2c(-c3ccccc3)c3c(C(=O)OCC=C)c(N)oc3cc12	101	/	108	83
CC(=O)N1c2ccccc2C=Cc2ccccc21	107	-6	81	96
CCC(=O)Oc1ccc(C=C2C(=O)NC(=O)NC2=O)cc1OC	96	56*	95	94
COc1cc(OC)c(NC(=O)Cn2ncn3c(cc4cc(C)ccc43)c2=O)cc1Cl	107	4	103	81
CCOC(=O)c1c(NC(=O)c2cccc(Cl)c2)sc(C(=O)Nc2cccc(Cl)c2C)c1C	98	-14	/	/
CC(C)NC(=O)/C=C/c1ccc2c(c1)OCO2	99	-48	108	89

Assay outcomes: PubChem, ICCB-Longwood Screening Facility, Harvard Medical School
